2A Renilla: Primary qHTS Assay for Foot and Mouth Disease Virus Antivirals against NCGC Sytravon and CBC Compound Libraries: Renilla Luciferase Signal; HEK cells with a luciferase reporter of 2A StopGo recoding; Potency, µM (titrated, usually from 57.5 µM), for the others: at the top dose signal change, negative = less light; hit rate 0.32% among 120,000; active means well fitted falling curve with a large enough effect; inconclusive means small, poorly fitted or top-dose-only effect; inactive means no such curve, though single readings can be large or run the other way; also: nearly all actives have a fitted effect of over 55% in size; overnight with compound
StopGo FLuc: Primary qHTS Assay for Foot and Mouth Disease Virus Antivirals against NCGC Sytravon and CBC Compound Libraries: Firefly Luciferase Signal; HEK cells with a luciferase reporter of 2A StopGo recoding; Potency, µM (titrated, usually from 57.5 µM), without a hit: at the highest dose signal change, negative = less light; hit rate 0.23% among 120,000; active = well fitted falling curve with a large enough effect; inconclusive = small, poorly fitted or top-dose-only effect; inactive = no such curve, though single readings can be large or run the other way; also: nearly all actives have a fitted effect of over 60% in size; overnight with compound
* = called active by the depositor; [ ] = another dose, or the depositor's remark. % is scaled to controls: 0 for no effect and ±100 for the full control effect; potency is read from the fitted curve at half-maximal effect.

Screening O=S(=O)(Nc1ccc2oc(-c3ccc(Cl)cc3)nc2c1)c1ccccc1 returned 2A Renilla 76%[activator] and StopGo FLuc 66%[activator].
CC(C)(C)c1ccccc1NC(=O)CSc1nc2ncc(Br)cc2[nH]1 was read as 2A Renilla 8% and StopGo FLuc 6%.
COC(=O)C1=C(N)Oc2cc(C)n(Cc3ccccc3)c(=O)c2C1c1ccccc1OC (stereo not given) was read as 2A Renilla 0% and StopGo FLuc 5%.
`O=c1c2cnc3c(-c4ccccc4)cnn3c2ccn1CCN1CCOCC1` gave 2A Renilla -9% and StopGo FLuc 0%.
Screening COc1ccc(S(=O)(=O)N2Cc3ccccc3CC2C(=O)Nc2cccc(C)c2)cc1OC (stereo not given) returned 2A Renilla -9% and StopGo FLuc -16%.
For CCOC(=O)c1sc2ccccc2c1S(=O)(=O)N1CCN(c2ccccc2)CC1 the results were 2A Renilla 7% and StopGo FLuc -8%.
CCCN(C(=O)c1cc2c(s1)-c1ccccc1OC2)c1ccc(C(C)C)cc1 was read as 2A Renilla -3% and StopGo FLuc -11%.
Screening Cc1cccc(N2CCN(c3ccc(C(=O)O)cc3NC(=O)c3ccccc3F)CC2C)c1 (stereo not given) returned 2A Renilla -17% and StopGo FLuc -1%.
Screening Cc1ccc2c(CN(C)CCOc3ccccc3C)cc(=O)oc2c1 returned 2A Renilla 4% and StopGo FLuc 7%.
For CCOc1cc2[nH]c(=O)n(Cc3ccc(C(=O)N4CCN(c5ccccc5)CC4)cc3)c(=O)c2cc1OCC the results were 2A Renilla -10% and StopGo FLuc -6%.
`COc1cccc(C(=O)Nc2c3c(nn2-c2ccc(Cl)cc2)CS(=O)(=O)C3)c1` gave 2A Renilla -7% and StopGo FLuc -18%.
COC(=O)c1ccc(Cn2c(SCC(=O)Nc3ccc(F)cc3)nc3ccccc32)cc1 was read as 2A Renilla -15% and StopGo FLuc -6%.
`Cc1cccc(C(C)C)c1NC(=O)CSc1nnc(-c2cc(-c3ccccc3)n[nH]2)n1N` gave 2A Renilla 8% and StopGo FLuc 12%.
Screening Cc1cccc(-n2c(SCC(=O)Nc3ccc(C)c(C)c3)nc3n[nH]c(C)c3c2=N)c1 returned 2A Renilla 6% and StopGo FLuc -28%.
`Cc1ccccc1Nc1cc(C)c2ccccc2n1` gave 2A Renilla 11% and StopGo FLuc 5%.
Screening CCC(=O)N1CCc2cc(Br)cc(S(=O)(=O)N3CCCC(C(=O)Nc4cccc(F)c4)C3)c21 (stereo not given) returned 2A Renilla -4% and StopGo FLuc -12%.
For COc1ccc(S(=O)(=O)N2CCCN(CC(=O)Nc3ccc(NC(C)=O)cc3)CC2)cc1 the results were 2A Renilla -6% and StopGo FLuc -14%.
COC(=O)c1cc(S(=O)(=O)N2CCN(c3ccc(F)cc3)CC2)cn1C was read as 2A Renilla inconclusive and StopGo FLuc inconclusive.
Screening CCC(CC)C(=O)Nc1ccc(F)cc1 returned 2A Renilla 2% and StopGo FLuc 13%.
For CNC(=O)c1c(NC(=O)c2ccc(S(=O)(=O)N3CCCC(C)C3)cc2)sc2c1CCC2 (stereo not given) the results were 2A Renilla -3% and StopGo FLuc -22%.
For COc1ccc(OC)c(NC(=O)Cn2cc(C(=O)c3ccccc3F)c3ccccc32)c1 the results were 2A Renilla inconclusive and StopGo FLuc inconclusive.
`CCCCCn1nc(C(=O)Nc2ccccc2CC)c2ccccc2c1=O` gave 2A Renilla -5% and StopGo FLuc -9%.
`Cc1c(Cl)cccc1-n1ncc(C(=O)Nc2ccc(F)cc2F)c1C1CCN(C(=O)OC(C)(C)C)CC1` gave 2A Renilla -6% and StopGo FLuc -27%.
Screening O=C(CCC1N=C2c3ccccc3N=C(SCc3ccccc3Cl)N2C1=O)NCCc1ccccc1 (stereo not given) returned 2A Renilla 13% and StopGo FLuc 2%.
Nc1nc(N)nc(NC2CC2)n1 was read as 2A Renilla -19% and StopGo FLuc -5%.
CC(CCc1ccco1)NC(=O)CCc1nnc2ccc(N3CCCC3)nn12 (stereo not given) was read as 2A Renilla -4% and StopGo FLuc -1%.
Cc1cc(C(=O)CSc2ccccc2Cl)c(C)[nH]1 was read as 2A Renilla 39%[activator] and StopGo FLuc 224%[activator].
For CCCCN(CC)CCCNC(=O)C1CCN(c2nc3ccc(CC)cc3s2)CC1 the results were 2A Renilla -12% and StopGo FLuc 0%.
For O=C(Nc1ccncc1)c1ccc(-c2ccccc2)cc1 the results were 2A Renilla 3.2µM* and StopGo FLuc -11%.
For O=C(OCC(=O)c1cccs1)c1ccc(C(=O)c2ccccc2)cc1 the results were 2A Renilla -2% and StopGo FLuc 0%.
O=C(Cc1ccccc1F)NC1CCC(c2ccccc2)CC1 (stereo not given) was read as 2A Renilla 13% and StopGo FLuc 130%[activator].
`CCN(C(=O)Cn1nc2c3cc(F)ccc3n(Cc3cccc(C)c3)cc-2c1=O)c1cccc(C)c1` gave 2A Renilla -19% and StopGo FLuc -20%.
`CNC(=O)c1ccc(CNC(=O)c2nccnc2N)cc1` gave 2A Renilla 22% and StopGo FLuc 15%.
`O=c1c(-c2ccc(Br)cc2)c(C(F)(F)F)oc2cc(O)ccc12` gave 2A Renilla inconclusive and StopGo FLuc inconclusive.
COc1cc(CN(C(=O)c2cccc(C)c2)c2ccccn2)cc(OC)c1OC was read as 2A Renilla 50%[activator] and StopGo FLuc -22%.
Cc1ccc(CNC(=O)CSc2nc(=O)[nH]c3c2CCCC3)cc1 was read as 2A Renilla -8% and StopGo FLuc -14%.
`Cc1ccccc1-c1cc(=O)c2cc(NC(=O)c3ccc(F)cc3)ccc2o1` gave 2A Renilla 17% and StopGo FLuc 16%.
O=C(OCC(=O)c1cccs1)c1cccc(O)c1 was read as 2A Renilla 4% and StopGo FLuc 27%.
`COc1cc2c(cc1OC)C1=CC3(C(=O)Nc4ccc(F)cc43)C(C#N)=C(N)N1CC2` (stereo not given) gave 2A Renilla -5% and StopGo FLuc -15%.
Cc1nn2c3c(cnc2c1-c1ccc(F)cc1)C(=O)CC(c1ccccc1)C3 (stereo not given) was read as 2A Renilla 6% and StopGo FLuc 2%.
For Cc1cc(C)cc(NC(=O)N2CCN(c3cc(-c4noc(C)n4)ccc3C)CC2)c1 the results were 2A Renilla -5% and StopGo FLuc -1%.
`COC(=O)c1ccc(CNC(=O)c2cccc(NC(C)=O)c2)cc1` gave 2A Renilla 8% and StopGo FLuc 3%.
C=CCn1c(N2CCC(C(N)=O)CC2)nc2c1c(=O)[nH]c(=O)n2C was read as 2A Renilla 0% and StopGo FLuc 11%.
Screening O=C(Nc1ncc(Cc2cccc(C(F)(F)F)c2)s1)C1=Cc2ccccc2OC1 returned 2A Renilla 16% and StopGo FLuc 0%.
`O=c1c(Cl)c(N2CCN(c3ccccc3)CC2)cnn1-c1nc2ccccc2s1` gave 2A Renilla 7% and StopGo FLuc 182%[activator].
Screening COc1ccc(S(=O)(=O)Nc2cc(N3CCCS3(=O)=O)ccc2C)cc1OC returned 2A Renilla 103%[activator] and StopGo FLuc -1%.
`c1ccc(-c2ccc(CN3CCNCC3)s2)cc1` gave 2A Renilla -6%[1.06 µM] and StopGo FLuc 0%.
`CCc1c(C)sc(NC(=O)c2cccc3ccccc23)c1C#N` gave 2A Renilla 45%[activator] and StopGo FLuc 4%.
CCCCCC(C)NC(=O)Nc1cc(C(F)(F)F)ccc1Cl (stereo not given) was read as 2A Renilla inconclusive and StopGo FLuc inconclusive.
CC(C)(C)C(=O)Nc1oc(-c2ccccc2)c(-c2ccccc2)c1C#N was read as 2A Renilla 63%[activator] and StopGo FLuc 2%.
`CC1CCCCC1NC(=S)NCc1ccncc1` (stereo not given) gave 2A Renilla inconclusive and StopGo FLuc inconclusive.
Cc1ccc2c(c1)cc1c(=O)n(CC(=O)NC(C)CCc3ccccc3)nc(C)n12 (stereo not given) was read as 2A Renilla -7% and StopGo FLuc -7%.
`Cc1ccc2oc(C(=O)NCC3(c4ccccc4)CC3)cc(=O)c2c1` gave 2A Renilla -19% and StopGo FLuc -29%.
N#CC1=C(N)OC2=C(C(=O)CC(c3ccccc3)C2)C1C1CCCCC1 (stereo not given) was read as 2A Renilla 0% and StopGo FLuc inconclusive.
Screening Cc1cc2c(cc1C)NC(c1ccccc1)C1=C(CC(C)(C)CC1=O)N2 (stereo not given) returned 2A Renilla 3% and StopGo FLuc 43%[activator].
O=C(CCc1c[nH]c2ccccc12)Nc1ccc(F)cc1 was read as 2A Renilla 14% and StopGo FLuc 169%[activator].
CNS(=O)(=O)c1cc(C(=O)NCc2coc(-c3cccs3)n2)cc(C)c1C was read as 2A Renilla 197%[activator] and StopGo FLuc 2%.
Screening Cc1cccc(S(=O)(=O)c2cn(Cc3ccccc3)c3cc(N4CCC(C)CC4)c(F)cc3c2=O)c1 returned 2A Renilla 16% and StopGo FLuc -13%.
Screening Cc1c(CC(=O)N2CCC(O)(c3ccc(Cl)cc3)CC2)c(=O)oc2c(C)c(O)ccc12 returned 2A Renilla 29% and StopGo FLuc -7%.
Screening CCC(Oc1ccc(F)cc1)C(=O)NCc1csc(-c2ccccc2)n1 (stereo not given) returned 2A Renilla inconclusive and StopGo FLuc inconclusive.

The last 7 compounds of the part above are carried over, then new ones follow:
N#CC1=C(N)OC2=C(C(=O)CC(c3ccccc3)C2)C1C1CCCCC1 (stereo not given) was read as 2A Renilla 0% and StopGo FLuc inconclusive.
Screening Cc1cc2c(cc1C)NC(c1ccccc1)C1=C(CC(C)(C)CC1=O)N2 (stereo not given) returned 2A Renilla 3% and StopGo FLuc 43%[activator].
O=C(CCc1c[nH]c2ccccc12)Nc1ccc(F)cc1 was read as 2A Renilla 14% and StopGo FLuc 169%[activator].
CNS(=O)(=O)c1cc(C(=O)NCc2coc(-c3cccs3)n2)cc(C)c1C was read as 2A Renilla 197%[activator] and StopGo FLuc 2%.
Screening Cc1cccc(S(=O)(=O)c2cn(Cc3ccccc3)c3cc(N4CCC(C)CC4)c(F)cc3c2=O)c1 returned 2A Renilla 16% and StopGo FLuc -13%.
Screening Cc1c(CC(=O)N2CCC(O)(c3ccc(Cl)cc3)CC2)c(=O)oc2c(C)c(O)ccc12 returned 2A Renilla 29% and StopGo FLuc -7%.
Screening CCC(Oc1ccc(F)cc1)C(=O)NCc1csc(-c2ccccc2)n1 (stereo not given) returned 2A Renilla inconclusive and StopGo FLuc inconclusive.
Screening Cc1cc(C)cc(NC(=O)c2ccc(Oc3nccnc3N3CCCCC3)cc2)c1 returned 2A Renilla 0% and StopGo FLuc 7%.
COc1ccc(-c2cc(C(=O)NCCC(=O)N3CCCC3)c3ccccc3n2)cc1OC was read as 2A Renilla 30%[activator] and StopGo FLuc 43%[activator].
For O=C(NCc1ccccc1)c1ccc2oc(=O)n(Cc3ccccc3)c2c1 the results were 2A Renilla 32%[activator] and StopGo FLuc -6%.
Screening COc1ccc(NC(=O)c2nc3ccccc3nc2N2CCN(C)CC2)cc1 returned 2A Renilla -21% and StopGo FLuc -14%.
For COC(=O)c1c(NC(=O)CN2CCNC(=O)C2)sc2c1CCCCC2 the results were 2A Renilla 12% and StopGo FLuc 129%[activator].
`CC(C)CNC(=O)NCCn1c(-c2ccc(F)cc2)nc2ccccc21` gave 2A Renilla -3% and StopGo FLuc -4%.
Screening O=C(Nc1ccccc1SC1CCCC1)c1ccc(F)cc1 returned 2A Renilla 21% and StopGo FLuc 15%.
Screening Clc1cccc(CSc2ccc(-c3cccs3)nn2)c1 returned 2A Renilla 8% and StopGo FLuc 51%[activator].
`O=C(Nc1c(C(=O)c2ccc(Cl)cc2)oc2ccccc12)c1cc(=O)c2ccccc2o1` gave 2A Renilla 12% and StopGo FLuc -3%.
`CCCc1cc(=O)oc2cc(OCC(=O)C(C)(C)C)ccc12` gave 2A Renilla 23% and StopGo FLuc 6%.
Screening N#C/C(=C/c1cccc(O)c1)c1nc2ccccc2[nH]1 returned 2A Renilla 3%[1.06 µM] and StopGo FLuc 224%[activator].
For N#Cc1ccc(Cn2c(CN3CCOCC3)nc3scc(-c4cccs4)c3c2=O)cc1 the results were 2A Renilla -8% and StopGo FLuc 0%.
CCn1c(CSc2n[nH]c(-c3ccccc3)n2)nc2cc(S(=O)(=O)N(C)C)ccc21 was read as 2A Renilla 2% and StopGo FLuc inconclusive.
Screening COc1ccc(NC(=O)c2c(-c3ccccc3)c(-c3ccccc3)nn(C)c2=O)cc1OC returned 2A Renilla -1% and StopGo FLuc -24%.
Cc1ccc(OCCn2cc(C(=O)C3CC3)c3ccccc32)cc1 was read as 2A Renilla 41%[activator] and StopGo FLuc 68%[activator].
CCCn1c(=O)n(CC(=O)Nc2ccccc2)c(=O)c2c1nc(C)n2CCOC was read as 2A Renilla -1% and StopGo FLuc 3%.
For COCCNC(=S)NC1CC(C)(C)NC(C)(C)C1 the results were 2A Renilla 1% and StopGo FLuc -18%.
Screening Nc1nnnn1NCc1ccccc1OCc1ccc(F)cc1 returned 2A Renilla 47%[activator] and StopGo FLuc 15%.
Screening Cc1cc(C)nc(NC(c2cccs2)c2cc(C)sc2NC(=O)c2ccccc2)n1 (stereo not given) returned 2A Renilla 58%[activator] and StopGo FLuc 173%[activator].

Only part of the results is shown; the hit share may differ from the screen's.
